TRPML1 agonist: qHTS for Agonists of the Human Mucolipin Transient Receptor Potential 1 (TRPML1); TRPML1-expressing cells, Ca2+ dye fluorescence, FDSS; host cell line not named in the record; reference of the full effect not given here; activation, % (test concentration not listed); 410,000 compounds, 0.12% hits; AID 624414, 2012; in the data active = activation above about 50%; inconclusive = about 30% to 50%; inactive = below about 30%; further: 0% is about no effect; the text of the record puts the active cut at 80%
Target sequence (Q9GZU1 whole entry, looked up): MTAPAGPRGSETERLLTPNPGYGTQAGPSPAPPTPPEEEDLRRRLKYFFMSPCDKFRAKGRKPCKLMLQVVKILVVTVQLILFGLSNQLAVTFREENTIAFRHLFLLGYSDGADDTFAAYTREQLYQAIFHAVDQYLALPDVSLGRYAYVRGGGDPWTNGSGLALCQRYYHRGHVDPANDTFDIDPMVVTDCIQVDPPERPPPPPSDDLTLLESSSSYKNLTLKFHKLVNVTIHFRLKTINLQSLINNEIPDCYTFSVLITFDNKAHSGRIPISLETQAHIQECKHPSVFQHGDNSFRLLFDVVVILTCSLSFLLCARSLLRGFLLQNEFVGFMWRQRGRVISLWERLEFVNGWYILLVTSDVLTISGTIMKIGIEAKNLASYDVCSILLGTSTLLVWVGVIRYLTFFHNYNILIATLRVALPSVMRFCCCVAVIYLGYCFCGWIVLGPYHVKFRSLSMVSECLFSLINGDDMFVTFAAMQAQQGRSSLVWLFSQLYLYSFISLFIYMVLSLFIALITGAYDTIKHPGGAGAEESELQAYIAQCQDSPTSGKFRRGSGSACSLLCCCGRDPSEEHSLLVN
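Tetracycline-induced TRPML1-DL cells are seeded and incubated overnight before loading with a no-wash Ca2+ dye and quencher. Agonist activity is taken from the 110 s fluorescence read following compound pin-transfer on an FDSS, before EC80 54-4 challenge.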
Sfp PPTase inh: qHTS Assay for Inhibitors of Bacillus subtilis Sfp phosphopantetheinyl transferase (PPTase). 4'-phosphopantetheinyl transferase ffp (Bacillus subtilis), Q9F4F7. Biochemical Sfp PPTase activity, qHTS. Potency, µM, without a hit: max response, negative = inhibition, most hits filed as inhibitors. 310,000 compounds, 3.5% hits. AID 1490, 2009; active means well fitted inhibition curve with a large enough effect; inconclusive means small, poorly fitted or top-dose-only effect, or another doubt; inactive means no such curve, though single readings can be large or run the other way;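 further: the enzyme is Sfp with the accession as filed and its product quenches rhodamine fluorescence; potency means the concentration at half of the fitted maximal effect; 0% = enzyme reaction without inhibitor and -100% = no enzyme wells; top concentration of the series not given in the record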
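After 15 min at room temperature with compound, 15 nM Sfp received 5 uM rhodamine-CoA plus 12.5 uM BHQ-2-ybbR (50 mM Hepes pH 7.6, 10 mM MgCl2). Rate came from the fluorescence difference over 30 min, ex 525/em 598 nm.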
ClpP mod: qHTS Assay for Activators of ClpP; Potency, µM (doses to about 57.5 µM), for inactives: at the top dose activity change, negative = active; ATP-dependent Clp protease proteolytic subunit (Bacillus subtilis (strain 168)), P80244; 340,000 compounds, 1.9% hits; purified B. subtilis ClpP, FRET peptide cleavage, 20 min; active = well fitted falling curve with a large enough effect; inconclusive = small, poorly fitted or top-dose-only effect; inactive = no such curve, though single readings can be large or run the other way; further: potency means the concentration at half of the fitted maximal effect; the source files actives as falling curves though it sought activators and does not explain the sign; nearly all actives have a fitted effect of over 65% in size; many hits overshoot -100%
Target sequence (P80244 whole entry, looked up): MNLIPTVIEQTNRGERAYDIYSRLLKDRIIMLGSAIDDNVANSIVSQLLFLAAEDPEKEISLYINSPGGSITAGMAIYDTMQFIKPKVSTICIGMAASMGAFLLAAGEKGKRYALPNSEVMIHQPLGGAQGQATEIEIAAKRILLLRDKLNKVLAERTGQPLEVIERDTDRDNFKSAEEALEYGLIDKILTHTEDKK
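Buffer: 100 mM Tris/HCl pH8, 100 mM KCl, 0.05% low protease BSA, 2.5% glycerol, 0.01% Tween-20. ClpP 10 microg/mL final; 20 min RT; delta FRET normalized to ADEP and DMSO controls.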
PINK1 expr mod: A Quantitative High throughput Screen to Identify Chemical Modulators of PINK1 Expression; PINK1 immunofluorescence, high-content cytometry, 24 h; Potency, µM (top dose mostly 76.6 µM), for inactives: at the top dose activation (PINK1 increase), actives largely listed as activators; 410,000 compounds, 0.2% hits; AID 624263, 2012; active = well fitted activation curve with a large enough effect; inconclusive = small, poorly fitted or top-dose-only effect; inactive = flat fitted curve, though single readings scatter; cell line not stated here;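 further: potency means the concentration at half of the fitted maximal effect; % of control where 0% means no effect; nearly all actives have a fitted effect of over 65% in size; a mitochondrial uncoupler was the plate control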
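PINK1 protein level read as immunofluorescence by microplate cytometer in a fixed, stained stable cell line after 24 h exposure to five compound concentrations, with CCCP as control.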
Menin MLL FP FL: qHTS Assay for Inhibitors Targeting the Menin-MLL Interaction in MLL Related Leukemias: Competition With Fluorescein Labeled MLL-derived Peptide. Fluorescence polarization, fluorescein-MLL peptide displacement from menin. FP activity change, % at 61.4 µM. 290,000 tested, under 10 active; inconclusive = falling polarisation curve, or a change in total fluorescence; inactive = total fluorescence flat and polarisation flat or rising; no compound was filed as active; the % refers to the polarisation; negative = inhibition;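 further: % of control where 0% means no effect; inhibitors lower the polarisation; unlabelled MLL peptide was the positive control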
TRPV1 PAM: HTS Assay for Compounds that Act as Potentiators of the Vanilloid Receptor 1; Transient receptor potential cation channel subfamily V member 1 (Homo sapiens), Q8NER1; TRPV1-expressing cells, Fluo-8 calcium influx, capsaicin EC20 potentiation; host cell line not named in the record; control for the full effect not named in the record; potentiation, % at 8.33 µM; 320,000 compounds, 0.02% hits; AID 540277, 2011; active means potentiation above 80%; inconclusive means 30% to 80%; inactive means below 30%; further: 0% is about no effect
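Fluo-8 calcium influx in TRPV1-expressing cells, kinetic read (ex 480/em 520 nm). Compound added and read 3 min for agonist activity, followed by capsaicin at EC20 final and 2 min further read for enhancement.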
TRPML1 inh: qHTS for Inhibitors of the Human Mucolipin Transient Receptor Potential 1 (TRPML1); Mucolipin-1 (Homo sapiens), Q9GZU1; TRPML1-inducible cells, Ca2+ dye fluorescence, FDSS; active compounds read low; inhibition of EC80 agonist-evoked calcium signal; activity change, negative = inhibition, % (test concentration not listed); 390,000 compounds, 0.02% hits; AID 624415, 2012; in the data active means activity change below about -50%; inconclusive means about -30% to -50%; inactive means above about -30%;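 further: stimulus is agonist 54-4 at its EC80 concentration; on the % scale 0 is the no-effect control and ±100 the full control effect; compound concentration not given in the record; the text of the record puts the active cut at -80%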
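TRPML1-DL cells, Tet-induced overnight (~16 h, 37 °C) at 1,500 cells/well, were loaded with Ca8 no-wash dye plus quencher for 45-90 min at room temperature. Compounds were pinned during FDSS kinetic reading; agonist 54-4 at EC80 (4 uM final) then added.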
Active calls of the source: *; ? = inconclusive; nt = not tested or not shown; [ ] = dose if it differs, or a comment. No enrichment for hits; 4.4% or so of the library scored in one or more.

SMILES | TRPML1 agonist | Sfp PPTase inh | ClpP mod | PINK1 expr mod | Menin MLL FP FL | TRPV1 PAM | TRPML1 inh
CCc1ccc(N(CC(=O)NCc2ccco2)C(=O)CCC(=O)Nc2nccs2)cc1 | 0.0 | 15% | nt | -0.9% | -5.3 | 8 | 11
O=C(CSc1nnc2ccc(-c3cccnc3)nn12)Nc1ccccc1 | 0.6 | nt | -1.6% | 1.4% | nt | -11 | -10
Cc1nn(C)c(C)c1CN(C)C(=O)CCCC(=O)O | -0.5 | 1% | -1.4% | 0.3% | -1.9 | 5 | -2
O=C1NC(=S)S/C1=C/c1ccc(N2CCOCC2)o1 | 28 | ? | -1.2% | 21% | nt | ? | -3
Cc1ccc(Cn2cc(-c3ccccc3)nn2)cc1 | 0.9 | -6% | 0.9% | 1.1% | -3.0 | -19 | 15
CC(C)c1ccc(C(=O)Nc2nnc(S(=O)(=O)N3CCCCC3)s2)cc1 | 0.1 | 21% | -10% | 4.6% | nt | -17 | -7
CCOc1ccc(-c2noc(-c3cccnc3)n2)cc1OCC | 1.1 | 18% | nt | 1.4% | -3.6 | 1 | -15
O=C1CN(C(=O)COC(=O)c2cnc(Cl)c(Cl)c2)c2ccccc2N1 | 2.3 | -4% | 0.2% | 2.7% | 2.7 | -5 | -1
CNc1ccc(C=O)cc1Br | -0.9 | nt | -13% | 0.3% | nt | nt | nt
CCCN1CCN(CCCNC(=O)CCn2nc(-c3ccccc3)ccc2=O)CC1 | -0.7 | 20% | 3.2% | 1.4% | -1.0 | 17 | 12
CCN(CC)S(=O)(=O)c1nnc(NC(=O)COc2ccc(C)cc2)s1 | 2.3 | nt | -2.9% | 3.8% | nt | nt | 12
CCN(c1ccccc1)S(=O)(=O)c1ccc2c(c1)OCCO2 | 1.8 | nt | -1.8% | 5.4% | nt | nt | 22
CSc1cc(C)nc(NC(C)=O)n1 | 0.7 | 13% | 0.9% | nt | 2.0 | nt | 3
CCOc1ccc(C(=O)NCC(=O)Nc2ccc3c(c2)OCO3)cc1OCC | 1.0 | nt | -2.0% | -5.6% | nt | -4 | -12
COc1ccc(C)cc1S(=O)(=O)N(CC(=O)Nc1ccc2c(c1)OCCO2)Cc1ccccc1 | 1.9 | -2% | 1.4% | 1.3%[38.3 µM] | 3.3 | -1 | 19
Cc1ccc(CO/N=C/C2=C(Cl)c3ccccc3CC2)cc1 | -0.8 | -2% | -1.7% | 8.2% | -1.4 | 9 | 8
O=C(CN1CCC(NC(=O)C2CC2)CC1)Nc1cccc(F)c1 | 0.6 | 14% | nt | 3.2% | 2.5 | 1 | -10
Cc1ccc(C(=O)N2CCCCCC2)cc1S(=O)(=O)Nc1ccccc1 | -0.9 | 5% | -0.4% | -0.3% | nt | 3 | -3
O=C1CCC([N+](=O)[O-])C(C2CC=CCC2)N1 (stereo not drawn) | 0.4 | nt | nt | 1.4% | nt | nt | -6
COc1ccc(C(=O)N2CCN(Cc3nc(CC4CC4)no3)CC2)cc1 | -0.3 | 22% | -0.2% | 2.8% | -3.1 | 1 | -11
CCC(=O)NC1(C(F)(F)F)C(=O)NC(C)=C1C#N (stereo not drawn) | -0.3 | 1% | -0.2% | 0.3% | 2.7 | ? | 7
Cc1ccc(NC(=O)CS(=O)CC(=O)N(C2CCCC2)C(C)C(=O)NC2CCCCC2)cc1 (stereo not drawn) | 0.4 | 11% | -1.0% | 0.7%[38.3 µM] | -1.1 | -1 | -14
CCOC(=O)N1C2=NC(C(=O)OC)=C(C(=O)OC)[C@@H]3N(Cc4ccccc4)c4ccccc4[C@]23C[C@H]1C(=O)OC | -0.7 | -3% | -0.2% | 1.9% | -4.6[11.7 µM] | nt | 8
CC1CCC(n2c(=S)[nH]c3ccccc3c2=O)CC1 (stereo not drawn) | 0.7 | 13% | -0.2% | 14% | -1.5 | -6 | 5
O=C(NCCCCc1ccccc1)c1ccccc1Br | 1.3 | nt | 2.1% | -0.9% | nt | nt | -3

Four entries drawn at random from the list so far, as already listed:
SMILES | TRPML1 agonist | Sfp PPTase inh | ClpP mod | PINK1 expr mod | Menin MLL FP FL | TRPV1 PAM | TRPML1 inh
CCN(c1ccccc1)S(=O)(=O)c1ccc2c(c1)OCCO2 | 1.8 | nt | -1.8% | 5.4% | nt | nt | 22
Cc1nn(C)c(C)c1CN(C)C(=O)CCCC(=O)O | -0.5 | 1% | -1.4% | 0.3% | -1.9 | 5 | -2
O=C1CN(C(=O)COC(=O)c2cnc(Cl)c(Cl)c2)c2ccccc2N1 | 2.3 | -4% | 0.2% | 2.7% | 2.7 | -5 | -1
Cc1ccc(CO/N=C/C2=C(Cl)c3ccccc3CC2)cc1 | -0.8 | -2% | -1.7% | 8.2% | -1.4 | 9 | 8

Following part:
SMILES | TRPML1 agonist | Sfp PPTase inh | ClpP mod | PINK1 expr mod | Menin MLL FP FL | TRPV1 PAM | TRPML1 inh
Nc1c(Br)c(=O)[nH]c(=O)n1-c1ccc(F)cc1 | 4.0 | 6% | nt | 0.8% | -8.7 | 7 | 21
CC(C)Cn1nc(NS(=O)(=O)c2cccc3nonc23)c2cc3ccccc3nc21 | -1.7 | 15% | 0.9% | -0.5% | nt | 9 | 0
COc1ccc(CNC(=O)COc2cc3c(c4oc(=O)cc(C)c24)CCC(C)(C)O3)cc1 | nt | 23% | 4.8% | 3.7% | 2.4 | -13 | nt
Cc1ccc(CNC(=O)C2CCC(CNc3nc(=S)[nH]c4ccccc34)CC2)cc1 (stereo not drawn) | -0.5 | -18% | -0.2% | -1.2% | -2.0 | 3 | 0
CCOC(=O)Cn1c(=NC(=O)C(C)C)sc2c(C)cc(C)cc21 | 3.2 | 2% | nt | 2.3% | 2.4 | 4 | 25
CCCCn1cnc2c(c1=O)c1nc3ccccc3nc1n2Cc1ccc2c(c1)OCO2 | 0.1 | 4% | -1.6% | 7.6% | -3.6 | -15 | 13
O=C(COc1ccccc1Cl)Nc1ccc(S(=O)(=O)Nc2ccccn2)cc1 | -0.3 | -7% | nt | 1.3% | 5.1 | 6 | 5
COc1ccc(C(=O)NCS(=O)(=O)c2ccc(C)cc2)cc1 | -0.3 | 7% | -2.3% | -2.4% | 6.2 | -18 | -3
CCCOc1ccc(N2C(=O)CC(NCCc3ccc(S(N)(=O)=O)cc3)C2=O)cc1 (stereo not drawn) | -0.4 | 5% | -1.8% | 5.3%[38.3 µM] | 0.4 | 6 | -4
COc1ccc(NC(=O)CN2CCCN(S(=O)(=O)c3ccc(F)cc3)CC2)cc1 | -0.6 | 0% | -2.3% | 2.9%[38.3 µM] | 4.6 | 16 | -28
Nc1nc(CN2CCN(c3ccccc3F)CC2)nc(Nc2ccc3c(c2)OCCO3)n1 | -0.1 | 4% | -4.0% | -7.8%[38.3 µM] | -0.6 | ? | 1
CC1CCN(S(=O)(=O)N2CCC(C(=O)NCc3cccnc3)CC2)CC1 | -0.5 | 16% | -2.7% | 0.3% | -1.1 | 10 | -5
Cc1nnc(SCC(=O)NCc2ccccc2Cl)n(N)c1=O | -0.5 | 6% | ? | -0.6% | 0.0 | 3 | -4
COc1cc2c(cc1OC)C1=C(C#N)CN(C3CCCCC3)CN1CC2 | 0.6 | -13% | -14% | 2.4% | 2.2 | nt | 3
Cc1cccc(NC(=O)CSc2cccc3cccnc23)c1 | -1.4 | -9% | 4.7% | 3.3% | -2.3 | 5 | 3
COc1ccc(S(=O)(=O)Nc2nc3ccccc3s2)cc1 | -1.0 | 10% | 0.2% | 1.4% | 0.7 | ? | 3
C=CCNCCOCCOc1ccc(C)cc1[N+](=O)[O-] | -0.7 | -8% | 1.6% | ? | 0.4 | 6 | 3
CCC(=O)N1CCc2cc(CNC(=O)c3cccc(N(C)C)c3)ccc21 | 0.9 | nt | -15% | 1.7% | nt | nt | -26
NC(=O)C[n+]1ccc(/C=N/O)cc1 | 0.1 | 15% | 1.0% | 0.9% | 3.0 | 24 | -12
CNC(=O)NC(=O)COC(=O)c1ccc(-n2c(C)ccc2C)cc1 | 1.6 | ? | -1.6% | 1.1% | 4.6 | 11 | 11
CC(C)C[C@@H]1CN=C(N)N1C[C@@H]1CCCN1C[C@H](C)N1C[C@@H](Cc2ccccc2)N(CCc2ccc(Cl)c(Cl)c2)C1=N | -0.8 | nt | -0.9% | 2.9% | nt | nt | -8
COc1ccc(Cl)cc1NC(=O)C1CCCN(S(C)(=O)=O)C1 (stereo not drawn) | 0.8 | 6% | 0.8% | 2.1% | -1.5 | 11 | -21
CCN(CC)C(=O)c1ccc(CS(=O)(=O)Cc2ccccc2)cc1 | 0.6 | 2% | -0.8% | 1.2% | 0.4 | -9 | 1
COC(=O)C1=C(C)N(C2CCCCC2)C(=O)C1 | -0.1 | 16% | 2.1% | -1.0% | 2.3 | -3 | 21
O=C(CCCOc1ccc(Cl)cc1)Nc1nncs1 | 4.2 | 4% | -0.8% | 3.0% | 2.9 | -2 | 13
Cc1ccc(-c2nc3cccnc3o2)cc1NC(=O)COc1ccc(C(C)(C)C)cc1 | 2.1 | ? | 28µM* | 25% | 2.3 | 9 | -3
CCOC(=O)C1=C(C)N=c2s/c(=C3\C(=O)Nc4ccccc43)c(=O)n2C1c1ccc2c(c1)OCO2 (stereo not drawn) | 2.3 | 3% | 0.0% | 0.8% | 2.9 | ? | 10
CCOc1ccc2nc(-c3cc(NC(C)=O)ccc3O)sc2c1 | 0.3 | 8% | -3.5% | -0.2% | 5.7 | 8 | 8
CC(C(=O)N1CCCCC1)N1CCN(S(=O)(=O)c2ccc(Cl)cc2)CC1 (stereo not drawn) | 1.8 | nt | 1.1% | -0.9% | nt | 2 | -24
Cc1ccnc2nc(C(=O)OCC(=O)Nc3ccc4c(c3)OC(F)(F)O4)nn12 | -0.3 | -1% | 0.3% | 4.4%[38.3 µM] | 4.8 | 3 | 5
